TRPML1 blocker: human mucolipin-1 channel inhibition; Q9GZU1; TRPML1-inducible cells, Ca2+ dye fluorescence, FDSS; active compounds read low; inhibition of EC80 agonist-evoked calcium signal; activity change, negative = inhibition, % (concentration not given with the values); 390,000 compounds, 0.02% hits; AID 624415; in the data active means activity change below about -50%; inconclusive means about -30% to -50%; inactive means above about -30%;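 note: stimulus is agonist 54-4 at its EC80 concentration; % is set by controls: 0 for no effect and ±100 for the full control effect; the text of the record puts the active cut at -80%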
Target sequence (Q9GZU1 whole entry, looked up): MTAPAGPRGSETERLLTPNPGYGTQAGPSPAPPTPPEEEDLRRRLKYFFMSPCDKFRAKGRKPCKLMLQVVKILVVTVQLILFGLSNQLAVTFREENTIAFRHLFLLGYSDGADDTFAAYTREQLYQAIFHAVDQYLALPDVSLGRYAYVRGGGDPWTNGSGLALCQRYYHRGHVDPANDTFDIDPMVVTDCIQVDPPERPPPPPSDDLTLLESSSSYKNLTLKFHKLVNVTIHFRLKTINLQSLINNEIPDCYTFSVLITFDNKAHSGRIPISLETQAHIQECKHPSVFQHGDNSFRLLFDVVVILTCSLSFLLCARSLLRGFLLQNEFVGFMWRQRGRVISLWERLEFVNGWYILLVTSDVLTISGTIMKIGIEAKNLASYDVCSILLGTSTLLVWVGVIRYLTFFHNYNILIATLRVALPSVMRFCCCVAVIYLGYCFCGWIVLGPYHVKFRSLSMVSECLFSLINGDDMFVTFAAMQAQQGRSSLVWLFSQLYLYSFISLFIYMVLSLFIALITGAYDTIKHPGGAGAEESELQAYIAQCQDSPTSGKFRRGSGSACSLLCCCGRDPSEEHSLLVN
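Calcium fluorescence in TRPML1-DL cells induced overnight with Tet: a 110 s read after compound pin addition, then a 110 s antagonist read after challenge with 54-4 at 4 uM final (EC80).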
gsp ag: activates gsp, the McCune-Albright syndrome mutation; gsp mutant cells, cAMP HTRF, 30 min; control for the full effect not named in the record; Potency, µM (series often up to 76.9 µM), inactives show at the top dose activation (cAMP increase), hits mostly activators; 340,000 compounds, 0.13% hits; active = well fitted activation curve with a large enough effect; inconclusive = small, poorly fitted or top-dose-only effect, or another doubt; inactive = no such curve, though single readings can be large or run the other way; cell line not stated here;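 note: phosphodiesterase inhibitor Ro 20-1724 added with compounds to block cAMP breakdown; potency is the fitted concentration of half-maximal effect; nearly all actives have a fitted effect of over 60% in size; about a fifth of the inactives were tested at one dose only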
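Cells stably selected in G418 were plated at 2000/well, grown 16-24 hr, then given compounds in DMSO with the PDE inhibitor […] (300 uM solution added) for 30 min at 37C; cAMP was read by HTRF.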
gsp antag: gsp mutant antagonism; Potency, µM (series often up to 76.9 µM), without a hit: at the top dose activity change, negative = inhibition, actives largely listed as inhibitors; 340,000 compounds, 0.4% hits; gsp-mutant cells, cAMP HTRF, 30 min; control for the full effect not named in the record; active = falling curve of any shape with a large fitted effect; inconclusive = falling curve, mostly with a smaller effect; inactive = flat or rising curve; cell line not stated here;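 note: intracellular cAMP measured with PDE inhibitor Ro 20-1724 present during compound exposure; potency is the fitted concentration of half-maximal effect; % is set by controls: 0 for no effect and ±100 for the full control effect; nearly all actives have a fitted effect of over 65% in size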
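HTRF cAMP read-out (cAMP-d2 plus anti-cAMP antibody-K in lysis buffer, 30 min RT). Before lysis, cells are exposed to compounds with […] for 30 min at 37C in DPBS containing Ca/Mg, BSA and Tween 20.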
TRPML1 ag: human mucolipin-1 channel agonism | Q9GZU1 | TRPML1-expressing cells, Ca2+ dye fluorescence, FDSS; host cell line not named in the record; reference of the full effect not given here | AID 624414 | 410,000 compounds, 0.12% hits | activation, % (no concentration beside the values); in the data active = activation above about 50%; inconclusive = about 30% to 50%; inactive = below about 30%; note: 0% is about no effect; the text of the record puts the active cut at 80%
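Cells: TRPML1-DL, 1X Tet inducer, ~16 h at 37 degrees C/5% CO2. Dye: ABD Ca8 no-wash + quencher, 45-90 min RT. Read: 10 s baseline, compound add, 110 s agonist phase; 54-4 EC80 (4uM final), 110 s antagonist phase.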
Menin-MLL FL inh: displaces fluorescein MLL peptide from human menin; Fluorescence polarization, fluorescein-MLL peptide displacement from menin; FP activity change, % at 61.4 µM; 290,000 tested, under 10 active; inconclusive = falling polarisation curve, or a change in total fluorescence; inactive = total fluorescence flat and polarisation flat or rising; no compound was filed as active; the % refers to the polarisation; negative = inhibition;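 note: % of control where 0% means no effect; inhibitors lower the polarisation; unlabelled MLL peptide was the positive control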
ClpP mod: qHTS Assay for Activators of ClpP; ATP-dependent Clp protease proteolytic subunit (Bacillus subtilis (strain 168)), P80244; purified B. subtilis ClpP, FRET peptide cleavage, 20 min; Potency, µM (titrated, usually from 57.5 µM), for the others: top-dose activity change, negative = active; 340,000 compounds, 1.9% hits; AID 651965, 2013; active = well fitted falling curve with a large enough effect; inconclusive = small, poorly fitted or top-dose-only effect; inactive = no such curve, though single readings can be large or run the other way; note: potency is the fitted concentration of half-maximal effect; the source files actives as falling curves though it sought activators and does not explain the sign; nearly all actives have a fitted effect of over 65% in size; many hits overshoot -100%
Target sequence (P80244 whole entry, looked up): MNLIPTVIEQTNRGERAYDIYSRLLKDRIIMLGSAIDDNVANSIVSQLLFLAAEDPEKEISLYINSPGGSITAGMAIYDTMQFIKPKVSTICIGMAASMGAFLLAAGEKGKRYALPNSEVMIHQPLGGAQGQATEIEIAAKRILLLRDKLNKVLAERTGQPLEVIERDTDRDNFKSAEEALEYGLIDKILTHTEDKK
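ClpP 10 microg/mL final, pH 8 Tris/KCl buffer with BSA, glycerol, Tween-20; compound pinned in; FRET-FV substrate; RT 20 min; Ex320/Em430; ΔFRET vs ADEP 5.8 microM, DMSO, no enzyme.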
Starred values were filed as active, the others as inactive; ? = inconclusive; . = not tested or not shown; [ ] = remark or other dose.

SMILES	TRPML1 blocker	gsp ag	gsp antag	TRPML1 ag	Menin-MLL FL inh	ClpP mod
Cc1cc(Cl)c(S(=O)(=O)N2CCN(c3ccccn3)CC2)cc1OCC(N)=O	-11	?	-3%	-0.4	0.2	1.2%
COc1ccc(C)cc1NC(=S)Nc1ccccc1SC	10	-39%[inhibitor]	11%	1.0	24	1.2%
CCc1ccc(C2=CC(c3cc(Br)ccc3F)n3ncnc3N2)cc1 (centres undefined)	2	11%	?	20	?	32µM*
CCCCC1(CC(=O)OC)C(=O)N(c2ccccc2)N(c2ccccc2)C1=O	-4	-2%[15.4 µM]	-4%	-0.9	7.1	28µM*
CCCC(=O)Nc1cc(C(=O)NCc2ccccc2)ccc1S(=O)(=O)c1ccc(Cl)cc1	12	.	.	2.0	.	-22%
CN(C)S(=O)(=O)c1cccc(C(=O)OCC(=O)Nc2sccc2C#N)c1	10	-22%	-11%	0.6	?	-4.1%
O=C1CC2(CCN(C(=O)c3ccccc3Br)CC2)Oc2ccccc21	-4	-5%	-6%	0.1	.	28µM*
CCOC(=O)CSc1nnc(-c2ccc(OC)cc2OC)o1	3	5%	?	0.8	-1.0	-3.0%
COc1ccc(CCn2c(-c3ccco3)nc3ccccc3c2=O)cc1OC	14	-9%	-7%	-1.2	1.8	-1.7%
Cc1cnc(C(=O)OCC(=O)c2cc(C)n(C)c2C)cn1	-24	-38%[inhibitor]	9%	-0.4	-9.3	0.8%
COC(CNC(=O)C(=O)NCC1OCCN1C(=O)c1ccc(Cl)cc1)OC (centres undefined)	23	-31%[inhibitor]	12%	0.0	-0.2	-0.2%
CCOc1ccc(CN(C(=O)c2nc(SC)ncc2Cl)C2CCS(=O)(=O)C2)cc1 (centres undefined)	-2	.	.	-0.2	.	-1.0%
CCC1CCCCN1C(=O)CSc1nc2ccsc2c(=O)n1Cc1ccccc1 (centres undefined)	28	12%	-29%	1.6	2.2	-0.3%
CN(C)CCCNc1ccc(-c2n[nH]c(=O)c3ccccc23)cc1[N+](=O)[O-]	-3	-32%[inhibitor]	-6%	-0.8	3.5	0.8%
O=[N+]([O-])c1nn(-c2ccc3c(c2)OCCO3)n(O)c1=NCCCO	1	1%	7%	-0.5	1.9	1.5%
COC(=O)Cc1ccc(NC(=S)N2CCC(Cc3ccccc3)CC2)cc1	-13	0%[15.4 µM]	-23%	1.0	-8.0	1.2%
COc1ccc(S(=O)(=O)NCC(c2ccc(N(C)C)cc2)N2CCOCC2)cc1 (centres undefined)	0	.	.	-0.7	.	?
CCOC(=O)Cc1csc(NC(=O)CSC2=NCCS2)n1	4	-1%	4%	-0.4	1.1	0.3%
O=C(c1ccc(F)cc1)C(CN1CCOCC1)c1ccccc1 (centres undefined)	0	18%	-14%	2.8	0.1	-2.4%
CCOC(=O)c1ccc(NC(=S)NCCCn2ccnc2)cc1	-9	-25%	5%	0.1	-0.9	.
Cc1ccc(C)c(NC(=O)COC(=O)c2nc(Cl)ccc2Cl)c1	22	0%	-2%	-1.6	.	-0.7%
CCCCn1c(-c2ccco2)nc2oc3ccccc3c(=O)c2c1=O	-9	7%[15.4 µM]	-18%	0.2	5.6	.
Cc1cccc(C)c1NC(=O)Cn1c(=O)n(CCC(=O)NCc2ccccc2Cl)c(=O)c2sccc21	7	.	.	1.8	.	-0.7%
Cn1cccc1Cc1nnc(SCC(=O)Nc2nccs2)n1CCc1ccccc1	2	21%	-7%	0.5	5.0	6.6%
COc1ccc(CSc2nnnn2-c2ccc(O)cc2)cc1F	6	14%	-16%	1.8	0.9	.
Cc1cc(C)n2nc(C(=O)Nc3cccc(S(=O)(=O)N4CCCC4)c3)nc2n1	32	?	2%	-0.6	-0.4	2.6%
Cc1ccc(C(C)C)c(OCCCn2c(=O)oc3ccccc32)c1	30	.	.	2.6	.	-0.7%
COCCCNC(=O)N1[C@H](c2cccs2)[C@@H](C)C(=O)[C@@H](C)[C@@H]1c1cccs1	-1	.	.	0.6	.	0.1%
COc1ccc(COc2cccc3ccc(C)nc23)cc1F	-9	6%[15.4 µM]	-12%	7.1	-0.6	.
Nn1c(Nc2ccc(Cl)cc2)nncc1=O	21	9%[15.4 µM]	3%	0.9	-0.1	.
O=C(Nc1ccc(F)cc1)c1c(Cl)nc2ccccn12	-4	-14%[15.4 µM]	2%	-0.6	2.3	.
C[C@@H]1CN([C@@H](C)CO)S(=O)(=O)c2ccc(Br)cc2O[C@H]1CN(C)C(=O)c1cccc(F)c1	-7	-68%[inhibitor]	.	0.6	.	1.4%
O=C(NCCNCCO)C1(C(F)(F)F)CC(CCc2ccccc2)CCCO1 (centres undefined)	15	.	.	0.9	-6.3	.
COc1cccc(C(=O)NCc2nnc(SCC(=O)Nc3nccs3)n2-c2cccc(C)c2)c1	-1	2%	-4%	1.7	1.5	-0.8%
CC(C)(C)OC(=O)NCCCC[C@@H](C(=O)NCCCCCCCCCCC(=O)N1CCN(C(=O)OC(C)(C)C)CC1)n1cc(CCO)nn1	19	.	?	-1.0	.	-2.4%
O=C(Cn1ncc2c([nH]c3ccccc32)c1=O)Nc1ccc(CN2CCCCC2)cc1	-5	-2%	7%	-0.3	4.1	-19%
CCCC(=O)Nc1cc(=O)n(C)c(=O)n1C	-3	17%	7%	-0.8	-0.3	1.7%
Cc1ccc(NC(=O)c2c(N3CCCC3=O)c3cc(C)ccc3n2C)c(C)c1	0	.	.	1.8	.	-2.1%
CC1CCC(C(C)C)C(OCC(O)CN2CCCC(C)C2)C1 (centres undefined)	0	-13%[15.4 µM]	1%	1.9	-0.5	.
C(=N\Nc1nc(Nc2ccccc2)nc(Nc2ccccc2)n1)/c1cccnc1	1	?	-24%	0.9	0.1	-1.2%
CC(C)c1ccc(NC(=O)CN(C)C2=NS(=O)(=O)c3ccccc32)cc1	-5	-37%[inhibitor]	.	-1.0	.	1.3%
CCN(CC)c1ccc(NC(=O)C2=CC=CN3CCS(=O)(=O)N=C23)cc1	6	-23%	-17%	-0.9	.	2.0%
COc1ccc2c(c1)CCCC21NC(=O)N(CC(=O)NCc2cccs2)C1=O (centres undefined)	11	-7%	0%	0.0	.	.
COc1ccc(CN(CC(=O)NCc2ccc(F)cc2)C(=O)c2ccco2)cc1	2	2%[15.4 µM]	-2%	1.2	.	.
COc1ccccc1NC(=O)c1cc(S(=O)(=O)N2CCOCC2)ccc1Cl	7	-21%	5%	-0.6	-7.5	-2.3%
CCn1c(=S)sc2c(=O)n(CC(=O)Nc3ccc(Cl)cc3)c(C)nc21	6	?	?	0.1	-4.9	0.2%
COc1ccc(N2CCN(c3oc(COc4ccc(Cl)cc4)nc3C#N)CC2)cc1	53	-3%	-7%	1.4	-1.1	-4.4%
O=[N+]([O-])c1cc(C(F)(F)F)ccc1N1CCN(S(=O)(=O)c2ccc3c(c2)CCCC3)CC1	-7	-5%	-7%	-0.6	-0.6	4.5%
O=C(c1ccc(NS(=O)(=O)c2ccc3[nH]c(=O)[nH]c3c2)cc1)N1CCCCC1	-1	-7%[15.4 µM]	8%	0.5	.	-3.7%
CCCC1=NN2C(=N)/C(=C\c3ccc(SCc4ccco4)o3)C(=O)N=C2S1	-16	-7%	-29%	3.2	?	-1.2%
O=C(c1cc(COc2ccc(F)cc2F)on1)N1CC[C@@H]2CCCC[C@H]2C1	35	-29%	3%	0.9	2.9	-2.6%
O=C(Nc1ccc(S(=O)(=O)O)cc1)c1ccc2c(c1)S(=O)(=O)c1ccccc1C2=O	0	.	8%	-0.7	.	-1.4%
COc1cc(NC(=O)C2CCCN(S(=O)(=O)c3cccc4nsnc34)C2)cc(OC)c1 (centres undefined)	10	9%	-8%	2.7	13	0.1%
C=C1C(=O)O[C@@]23[C@H]1CC[C@@H](C)[C@@H]2CC[C@@]1(C)O[C@@H]31	-16	.	-1%	0.2	.	0.9%
CCOC(=O)c1c(NC(=O)c2cc3ccccc3c(=O)o2)sc2c1CCC(C)C2 (centres undefined)	-18	.	.	3.1	.	-0.2%
O=C(c1ccc(Cn2c(=S)[nH]c3ccc(Br)cc3c2=O)cc1)N1CCN(C2CCCCC2)CC1	-2	-2%[15.4 µM]	-32%	-0.4	2.5	.
CCOC(=O)CSc1nnc(COc2ccc3ccccc3c2)o1	-3	4%	-4%	1.6	-5.4	.
O=C1NC(=O)N(Cc2ccccc2F)C1=O	-11	-42%	-1%	1.6	1.4	-1.4%
Cc1ccc(Cl)cc1N1CCN(C2(c3ccccc3)C(=O)c3ccccc3C2=O)CC1	3	.	.	1.2	.	0.2%
O=C(CN1CCN(S(=O)(=O)c2ccc(F)cc2)CC1)Nc1ccccc1F	6	-32%[inhibitor]	0%	0.2	4.2	0.2%
Later entries
SMILES	TRPML1 blocker	gsp ag	gsp antag	TRPML1 ag	Menin-MLL FL inh	ClpP mod
Cc1nnsc1C(=O)N/N=C/c1cccc(C(F)(F)F)c1	6	-10%[15.4 µM]	13%	0.0	-2.9	.
Oc1c(Cl)cc(Cl)cc1C1=NNC(c2ccc(Cl)cc2)C1 (centres undefined)	36	-6%[15.4 µM]	1%	-0.2	2.0	.
CN(C)c1ccc(/C=C2\CCC/C(=C\c3ccccc3)C2=O)cc1	-4	11%	-3%	14	?	103%
Cc1ccc2c(c1)c1c(c(=O)n(Cc3ccccc3)c(=O)n1Cc1cccc(F)c1)n2C	2	.	.	0.8	.	-2.3%
CC(C)Nc1nc(SCC(N)=O)nc(N2CCOCC2)n1	-3	-64%[inhibitor]	11%	0.0	2.0	-1.1%
CCOC(=O)C(=CN=C(N)Nc1nc2ccccc2o1)C(=O)OCC	-15	9%[15.4 µM]	0%	-0.6	-0.4	.
CSc1nc2sc3c(c2c2nnnn12)CCCC3	-5	19%	0%	0.9	-0.7	?
Clc1ccc2c(NCc3ccccc3)ccnc2c1	12	-10%[15.4 µM]	-12%	5.1	-4.7	.
Cc1cc(N2CCN(Cc3cn(C)nc3-c3cccc(Cl)c3)CC2)cc(C)n1	16	-11%[15.4 µM]	12%	0.2	-2.2	.
CCCOc1ccc(CNC(=O)Cn2cc3c(n2)-c2c(oc(C(=O)N4CCOCC4)c2C)CC3)cc1	-3	.	.	0.3	.	37%
CCC(C)[C@H](NC(=O)NC1CCN(Cc2ccccc2)CC1)C(=O)OC (some centres undefined)	4	3%	12%	-0.3	-2.2	0.6%
COc1ccc(NC(=O)N2CCOCC2)cc1	42	-10%	8%	0.4	4.9	-2.5%

A few values from the list:
In gsp antag, CCOC(=O)C(=CN=C(N)Nc1nc2ccccc2o1)C(=O)OCC has 0%
In TRPML1 ag, Cc1ccc2c(c1)c1c(c(=O)n(Cc3ccccc3)c(=O)n1Cc1cccc(F)c1)n2C has 0.8
In TRPML1 ag, COc1ccc(NC(=O)N2CCOCC2)cc1 has 0.4

Screens (PubChem)
